Mtb hypoxia rep: reduces hypoxia-regulated biosensor signal in M. tuberculosis. 300,000 tested, 0.1% active. M. tuberculosis hypoxia-regulated fluorescent reporter, fluorescence. fluorescence inhibition, % (no concentration beside the values);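 active means 35 to 45% if threefold the growth effect, above 45% if 1.5-fold the growth effect; inactive means the rest, general growth blockers included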;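 further: wells of about 50 µL received 100 nL stock; 0% = vehicle wells and 100% = reference inhibitor wells; whole bacteria with a GFP reporter of the hypoxia response; strong numbers were not always called active; many hits fall short of the cut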
Sa ugtP lethal: compounds lethal to S. aureus RN4220 ugtP deletion mutant; OD600 growth, 16 h; some inactives read as strong as hits; growth inhibition, % (no concentration beside the values); 330,000 tested, 0.54% active; AID 1259309;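 active means z-score under -3 and OD600 up to 0.15 on both plates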;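 further: plate controls were untreated wells for no effect and antibiotic for full effect; wells of about 80 µL received 100 nL stock; the first replicate is given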
BJeLR viability: BJeLR cell viability loss | BJeLR (HRASV12) viability, CellTiter-Glo ATP luminescence, 48 h; reference of the scale not given here | inhibition, % (no concentration beside the values) | 300,000 tested, 0.17% active | AID 1554;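 active means replicate mean above 50%; inconclusive means above 50% but judged a plate artefact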;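 further: 50 nL library stock added to about 25 µL; numbers are from one replicate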
RN4220 kill: S. aureus RN4220 growth inhibition; OD600, 16 h; inhibition, % (no concentration beside the values); 330,000 tested, 0.33% active;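 active means z-score of -3 or lower and OD600 up to 0.18 on both plates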;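 further: plate controls were untreated cells for no effect and reference antibiotic for full effect; stock transfer was 100 nL into about 80 µL; one replicate is shown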
Bead autofluor: compound fluorescence in toxin protease inhibitor counterscreen. compound autofluorescence counterscreen, microsphere flow cytometry; stronger effect = higher value. fluorescence intensity (concentration not given with the values). 360,000 tested, 3.1% active;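 active means at least 3 SD above the mean of all compounds, about 16000 in these data; inconclusive means too few beads counted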;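 further: 100 nL of 1 mM stock went into each well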
PrP 5UTR inh: suppresses PrP 5' UTR mRNA reporter expression | inhibition, % (concentration not given with the values) | 340,000 tested, 0.35% active | cell-based PrP 5' UTR mRNA reporter, plate reader | AID 488862;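 active means every replicate at 50% or more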;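 further: 0 = median of the neutral control wells; tested in H4 reporter cells; numbers are from one replicate; inactives centre near -14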
Mtb hypoxia rep growth: also measured in Mtb hypoxia rep; calls as there; growth inhibition, %; measured here: M. tuberculosis growth (absorbance);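 0% = vehicle and 100% = reference antibiotic; read after six days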
An asterisk follows results filed as active; ? = inconclusive; nt = not tested or not shown.

Start of the data: the first 2 entries (preview)
Short forms: A = Mtb hypoxia rep; B = Mtb hypoxia rep growth; C = Sa ugtP lethal; D = BJeLR viability; E = RN4220 kill; F = Bead autofluor; G = PrP 5UTR inh
COc1ccc(NC(=O)C2CCCN(S(=O)(=O)c3ccc4c(c3)CC(C)N4C(C)=O)C2)cc1 (stereo not given)
  A: 7; B: 16; C: -4; D: 9; E: -0.1; F: 5562; G: 2

CCC(=NCCC(c1ccccc1)c1ccccc1)c1c(O)[nH]c(=O)[nH]c1=O
  A: -7; B: 4; C: 19; D: 10; E: 1.2; F: 2326; G: -6

The listing, from the first entry:
Short forms: A = Mtb hypoxia rep; B = Mtb hypoxia rep growth; C = Sa ugtP lethal; D = BJeLR viability; E = RN4220 kill; F = Bead autofluor; G = PrP 5UTR inh
COc1ccc(NC(=O)C2CCCN(S(=O)(=O)c3ccc4c(c3)CC(C)N4C(C)=O)C2)cc1 (stereo not given)
  A: 7; B: 16; C: -4; D: 9; E: -0.1; F: 5562; G: 2

CCC(=NCCC(c1ccccc1)c1ccccc1)c1c(O)[nH]c(=O)[nH]c1=O
  A: -7; B: 4; C: 19; D: 10; E: 1.2; F: 2326; G: -6

Cc1ccccc1C(=O)Nc1nnc(S(=O)(=O)N2CCCCCC2)s1
  A: 7; B: 4; C: 16; D: 11; E: 3.8; F: 4651; G: 18

O=C(CCC(=O)N1CCOc2ccccc21)NCc1cccnc1
  A: 4; B: -1; C: 8; D: -2; E: 7.4; F: 5007; G: -34

COc1ccc(N2Cc3ccccc3C2=NC(=O)c2cccc([N+](=O)[O-])c2)cc1
  A: 12; B: 6; C: 1; D: -3; E: 3.2; F: 2174; G: -35

O=C(COC(=O)/C=C/c1ccc2c(c1)OCO2)NC1CC1
  A: -9; B: -6; C: 5; D: -7; E: 2.0; F: 2077; G: -23

COc1ccc(N(CC(=O)Nc2ccccc2C(=O)O)S(=O)(=O)c2ccc(C)c([N+](=O)[O-])c2)cc1
  A: 10; B: 5; C: 16; D: 8; E: 4.8; F: 4653; G: 3

CC(Sc1ccccn1)C(=O)Nc1ccccc1 (stereo not given)
  A: 6; B: 2; C: 8; D: 0; E: 2.1; F: 20487*; G: -35

CCC1=NN(S(=O)(=O)c2ccc(C)cc2)C(O)(C(F)(F)F)C1 (stereo not given)
  A: -20; B: -9; C: -2; D: 0; E: 2.1; F: 5035; G: -3

Cc1cc2oc(C(=O)N3CCN(CCc4ccccn4)CC3)c(C)c2cc1C
  A: -1; B: 6; C: -9; D: -4; E: -2.1; F: 6094; G: -23

O=C(/C=C/c1ccccc1Cl)NCCc1ccc(F)cc1
  A: -7; B: -9; C: -6; D: 2; E: -3.6; F: 2503; G: -45

COc1cccc(C(=O)N2CCN(Cc3ccccn3)CC2)c1
  A: -6; B: -3; C: 1; D: -4; E: 2.9; F: 3733; G: -17

CN(Cc1ccccc1)C(=O)c1ccc(NC(=O)Cc2ccc(NC(=O)C3CCCN(C(=O)C4CC4)C3)cc2)cc1 (stereo not given)
  A: -10; B: 2; C: -2; D: nt; E: 2.2; F: 3909; G: 86*

O=C(c1cc2ccccc2cc1O)N1CCN(c2ccccc2O)CC1
  A: 6; B: 5; C: -3; D: 9; E: 2.3; F: ?; G: -27

Cc1nc(-c2cccc(N)c2)cs1
  A: nt; B: nt; C: 5; D: 4; E: 3.2; F: 3884; G: -13

COc1ccc(CCNC(=O)CN2CCC(C)CC2)cc1OC
  A: 3; B: 0; C: -4; D: -2; E: -0.1; F: 3178; G: -12

O=C(NCc1cccs1)C1CCCN(C(=O)Nc2ccccc2)C1 (stereo not given)
  A: -6; B: 6; C: 6; D: -3; E: 0.1; F: 3368; G: -18

COCCCn1c(=O)c2ccccc2n(Cc2ccccc2)c1=O
  A: 15; B: 12; C: 12; D: -10; E: 0.3; F: 3454; G: -27

C=CCn1c(=O)/c(=C/c2ccc(Cl)cc2)s/c1=C(\C#N)c1nnc2n1CCCCC2
  A: 4; B: 8; C: 2; D: nt; E: 1.8; F: 3223; G: 40

Cc1cc(C)n2nc(C(=O)NN=C/C=C/c3ccccc3)nc2n1
  A: -4; B: -2; C: 8; D: nt; E: 2.9; F: nt; G: nt

CCNc1nc(NC#N)nc(SCC(=O)OCC)n1
  A: 6; B: 11; C: -5; D: 0; E: -7.6; F: 3262; G: -16

COc1ccc(C2C(C(=O)NCCN3CCOCC3)c3ccccc3C(=O)N2C)cc1OC (stereo not given)
  A: 14; B: 5; C: 7; D: -15; E: 3.3; F: 2999; G: -8

Cc1cc2c(cc1C)C(c1ccccc1OC(C)C)CC(=O)N2 (stereo not given)
  A: -7; B: 11; C: -8; D: 31; E: 3.6; F: 3208; G: 1

COc1cc(Br)c(C(C)NC(=O)c2cccc(Br)c2)cc1OC (stereo not given)
  A: 1; B: 3; C: 2; D: 1; E: 1.1; F: 8500; G: -12

CCc1cccc(NC(=S)N(CCCN2CCOCC2)C(C)c2cc3cccc(OC)c3o2)c1 (stereo not given)
  A: 13; B: 9; C: 6; D: -3; E: 0.6; F: 4647; G: 3

CCc1ccc(C(=O)NNc2ccc(C)c(Cl)c2)cc1
  A: -2; B: -4; C: 27; D: -2; E: -5.5; F: 3324; G: 1

CCC1(CC)C(=O)C2=C3C(CC(C(=O)OC)CC(C(=O)OC)C31)n1c(=O)n(C)c(=O)n1C2C (stereo not given)
  A: 10; B: 0; C: 1; D: nt; E: 2.6; F: nt; G: nt

COCCCNc1nc2ccccc2nc1NS(=O)(=O)c1ccc(C)cc1
  A: -4; B: -4; C: 1; D: -6; E: 2.2; F: 4764; G: 2

COc1ccc(CCNC(=O)c2ccccc2)cc1
  A: nt; B: nt; C: 8; D: -3; E: 1.9; F: 4667; G: 17

CCCCNC(=O)C1CCN(C(=O)C2CCN(S(=O)(=O)c3ccc(C)cc3)CC2)CC1
  A: 10; B: -2; C: 4; D: 8; E: 0.2; F: 5740; G: -11

A draw from above in order of heavy-atom count, largest number first.
Short forms: A = Mtb hypoxia rep; B = Mtb hypoxia rep growth; C = Sa ugtP lethal; D = BJeLR viability; E = RN4220 kill; F = Bead autofluor; G = PrP 5UTR inh
CCC1(CC)C(=O)C2=C3C(CC(C(=O)OC)CC(C(=O)OC)C31)n1c(=O)n(C)c(=O)n1C2C (stereo not given)
  A: 10; B: 0; C: 1; D: nt; E: 2.6; F: nt; G: nt

CCCCNC(=O)C1CCN(C(=O)C2CCN(S(=O)(=O)c3ccc(C)cc3)CC2)CC1
  A: 10; B: -2; C: 4; D: 8; E: 0.2; F: 5740; G: -11

COCCCNc1nc2ccccc2nc1NS(=O)(=O)c1ccc(C)cc1
  A: -4; B: -4; C: 1; D: -6; E: 2.2; F: 4764; G: 2

CCNc1nc(NC#N)nc(SCC(=O)OCC)n1
  A: 6; B: 11; C: -5; D: 0; E: -7.6; F: 3262; G: -16

(list continues)
Short forms: A = Mtb hypoxia rep; B = Mtb hypoxia rep growth; C = Sa ugtP lethal; D = BJeLR viability; E = RN4220 kill; F = Bead autofluor; G = PrP 5UTR inh
Cc1n[nH]c(=O)c2c(NC(=O)CSc3nc4ccccc4c(=O)n3CCCOC(C)C)oc(C)c12
  A: nt; B: nt; C: nt; D: -8; E: nt; F: 5595; G: -8

COc1ccc(OC(=O)c2cnn(-c3ccccc3)c2C)cc1
  A: 3; B: 9; C: 4; D: 9; E: -0.8; F: 3193; G: -68

COCC1CCCN(C(=O)c2ccc3oc(CCCc4ccccc4)nc3c2)C1 (stereo not given)
  A: 9; B: 3; C: 13; D: 0; E: 7.7; F: 6104; G: -21

Cc1ccccc1C(=O)Nc1ccnn1C1CCN(C(=O)c2ccoc2)CC1
  A: 13; B: 2; C: 10; D: -4; E: 4.1; F: 6467; G: -12

COCC(=O)N1CCC(Oc2ccc(C(=O)N(C)CCCC3CCCC3)cc2)CC1
  A: 6; B: -1; C: 7; D: 6; E: 4.4; F: nt; G: -17

Cc1ccc(-c2ccc(S(=O)(=O)N3CCN(C)CC3)cc2)cc1
  A: 1; B: -1; C: -8; D: 3; E: 2.6; F: 21880*; G: -13

O=C(Nc1cccc(Cl)c1)C1CCN(C(=O)c2cccs2)CC1
  A: 14; B: 0; C: -7; D: 9; E: 0.7; F: 4307; G: -19

O=C(NC(=S)Nc1cc(C(F)(F)F)ccc1N1CCOCC1)c1sc2ccccc2c1Cl
  A: -2; B: -6; C: -7; D: 13; E: 0.5; F: 2565; G: -21

O=C(c1cc(=O)c2ccccc2o1)N1CCCc2ccccc21
  A: nt; B: nt; C: 1; D: -11; E: 6.6; F: 4157; G: -9

COc1ccc(CCNC(=O)c2cnc3scc(C)n3c2=O)cc1OC
  A: 11; B: 8; C: 11; D: 3; E: 1.0; F: 5297; G: -42

CC(C)OC(=O)c1cccc(-c2ccc(C=O)o2)c1
  A: -1; B: 3; C: -7; D: 1; E: 3.5; F: 1971; G: -71

CC(=O)Nc1ccc(/C=C(\C#N)S(=O)(=O)c2ccc(C)cc2)cc1
  A: 14; B: -4; C: 2; D: nt; E: -0.4; F: 3949; G: -23

C=CCNCCCOc1ccc(C)cc1Br
  A: 1; B: 0; C: -2; D: 28; E: -1.3; F: 7823; G: -33

CCCc1cc(C(=O)Nc2sc3c(c2C#N)CCC3)no1
  A: 3; B: -5; C: 9; D: -6; E: 25; F: 5217; G: -24

Cn1c(SCCOc2ccc(Cl)cc2)nnc1-c1ccncc1
  A: 13; B: 4; C: 9; D: 3; E: 8.0; F: 23566*; G: -47

CC(=O)C1=C(O)CC(C)(C)CC1=NCc1nc2ccccc2[nH]1
  A: 10; B: 3; C: 3; D: 2; E: 2.4; F: 4210; G: -11

O=C(CNC(=O)c1ccc(OC(F)F)cc1)NCc1ccccn1
  A: 1; B: -12; C: 4; D: 9; E: 2.0; F: ?; G: -4

COc1ccc(NC(=O)C(=O)NCc2ccncc2)c(OC)c1
  A: nt; B: nt; C: 7; D: -4; E: -1.3; F: 5011; G: -4

O=C(Cc1ccc(NC(=O)C2CCN(C(=O)C3CCCCC3)CC2)cc1)Nc1ccc(C(=O)N2CCOCC2)cc1
  A: -1; B: 5; C: -2; D: nt; E: 2.8; F: 2670; G: -17

COc1ccc(-c2[nH]ncc2CN2CCCCCCC2)c(OC)c1
  A: -3; B: 8; C: 2; D: 19; E: 4.2; F: 4536; G: -1

O=C(CSc1nnc(-c2ccccc2)o1)NC1CCCC1
  A: 18; B: 4; C: 2; D: 2; E: 4.5; F: 5115; G: -24

CC(=O)c1ccc(NS(=O)(=O)c2cccc(C(=O)Nc3ccccc3C(=O)O)c2)cc1
  A: -6; B: -22; C: -3; D: -2; E: 1.2; F: 3368; G: -12

CCC1(C)Cc2ccccc2-c2[nH][nH]c(=O)c21 (stereo not given)
  A: -4; B: -3; C: 1; D: nt; E: 6.9; F: 3991; G: -12

CCCCn1c(O)c(C(C)=Nc2ccc3c(c2)CCC3)c(=O)[nH]c1=O
  A: -13; B: -7; C: 8; D: 3; E: 0.1; F: 3610; G: 0

COc1cc2c(cc1NC(=O)c1cccc(S(=O)(=O)N(C)C)c1)oc1ccccc12
  A: 15; B: 9; C: -5; D: 7; E: -1.3; F: 10530; G: -28

O=C(c1ccc(S(=O)(=O)N2CCOCC2)cc1)N(c1ccc(F)cc1)C1C=CS(=O)(=O)C1 (stereo not given)
  A: -1; B: -3; C: 4; D: -8; E: 3.8; F: 10572; G: -16

Cc1c(NC(=O)c2cc(-c3ccc(Cl)s3)nc3ccccc23)c(=O)n(-c2ccccc2)n1C
  A: nt; B: nt; C: -2; D: 12; E: -2.1; F: 2670; G: -18

CC(=O)c1coc2ccc(OCC(=O)O)cc12
  A: -8; B: 2; C: 1; D: -2; E: 0.1; F: ?; G: 1

Cc1ccc(-c2cccc([C@H]3[C@@H]4C=CC[C@@H](C)[C@@H]4C(=O)N3Cc3ccccc3)c2)cc1
  A: -1; B: 0; C: 29; D: nt; E: -5.7; F: 3413; G: 62*

O=C(c1cnccn1)N1CCN(C/C=C/c2ccccc2)CC1
  A: 12; B: 12; C: 2; D: -1; E: -12; F: 3247; G: -8

O=C1CC(N2CCCc3ccccc32)C(=O)N1c1ccccc1 (stereo not given)
  A: -5; B: 11; C: -2; D: -5; E: 3.3; F: 8724; G: -15

CC(=O)N1[C@H](Cc2ccccc2)C=C[C@]1(C)C(=O)NCc1ccc(C)o1
  A: nt; B: nt; C: nt; D: -8; E: nt; F: 4129; G: -22

NC(=O)c1ccsc1NC(=O)C1CC1
  A: 3; B: -2; C: 7; D: -6; E: 2.9; F: 6116; G: -19

CN1CCc2c(n(CC(O)CN3CCN(CCO)CC3)c3ccccc23)C1=O (stereo not given)
  A: 6; B: 2; C: 1; D: 0; E: 0.4; F: 4410; G: -36

O=C(Cc1cccs1)NC(Cc1c[nH]c2ccccc12)C(=O)O (stereo not given)
  A: -2; B: 12; C: 6; D: -11; E: 2.6; F: 4049; G: -1
